Source: PubChem
SARS PLP yeast – SARS-CoV PLP inhibition in yeast | S. cerevisiae expressing SARS-CoV PLpro, growth rescue; control for the full effect not named in the record | Potency, µM (doses to about 32.9 µM), without a hit: at the top dose activity, positive = growth rescue | 0.19% of 330,000 active | AID 485353; also: 0% is about no effect; nearly all actives have a fitted effect of over 55% in size; growth read by luminescence after 48 h
Cruzain inh Det – blocks cruzain activity in presence of Triton detergent; 0.43% of 200,000 active; P25779; purified cruzain, Z-FR-AMC fluorescence, 0.01% Triton; Potency, µM, inactives show max response, negative = inhibition, usual class: inhibitors; active = well fitted curve in the direction sought with a large enough effect; inconclusive = small, poorly fitted or top-dose-only effect, or another doubt; inactive = no such curve, though single readings can be large; an effect the other way counts as inactive or inconclusive;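 also: plate controls were neutral wells for no effect and buffer without enzyme for full effect; nearly all actives have a fitted effect of over 40% in size; top concentration of the series not given in the record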
Target sequence (P25779 123-467 limits assumed): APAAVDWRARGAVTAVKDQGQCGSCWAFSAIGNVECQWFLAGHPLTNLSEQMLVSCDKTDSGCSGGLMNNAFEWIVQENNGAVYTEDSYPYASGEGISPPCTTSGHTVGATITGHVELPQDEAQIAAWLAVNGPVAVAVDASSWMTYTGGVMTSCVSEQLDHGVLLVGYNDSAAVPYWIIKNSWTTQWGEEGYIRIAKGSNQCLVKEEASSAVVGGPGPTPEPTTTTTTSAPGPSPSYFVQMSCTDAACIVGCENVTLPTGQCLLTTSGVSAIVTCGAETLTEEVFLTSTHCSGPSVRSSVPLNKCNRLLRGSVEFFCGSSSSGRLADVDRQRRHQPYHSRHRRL
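Cysteine protease activity tested under reducing, mildly acidic conditions (100 mM sodium acetate pH 5.5, 5 mM DTT) plus 0.01% Triton X-100. Cruzain 1.5 nM; substrate Z-FR-AMC 2 uM; 15 min compound preincubation at room temperature.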
NS1 function inh – blocks influenza NS1 protein function; S. cerevisiae slowed by influenza A NS1, growth recovery by OD600; Potency, µM (top dose mostly 46.1 µM), inactives show at the highest dose activity, positive = more growth; 0.4% of 270,000 active; AID 2326; also: actives are rising curves; nearly all actives have a fitted effect of over 50% in size
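Recovery from NS1-induced slow growth read by OD600 in budding yeast switched to galactose assay medium (pH 6.0, -URA) at 1:100 dilution. Compound 23 nl per well; the matching strain lacking NS1 serves as control.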
RE007 growth inh – less growth of the S. pombe RE007 Vpr strain. 0.21% of 360,000 active. Potency, µM (highest dose often 92.2 µM), inactives show at the top dose activity change, negative = less growth. S. pombe RE007 Vpr strain, BacTiter-Glo ATP luminescence, 24 h; control for the full effect not named in the record; active = well fitted falling curve with a large enough effect; inconclusive = small, poorly fitted or top-dose-only effect; inactive = no such curve, though single readings can be large or run the other way;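 also: % is scaled to controls: 0 for no effect and ±100 for the full control effect; nearly all actives have a fitted effect of over 50% in size; the assay follows cell death caused by Vpr and the record does not say whether a fall means rescue or toxicity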
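Fission yeast RE007 carrying one integrated HIV-1 vpr copy, seeded at OD 0.01 in PMG+AL medium with 23 nL pinned compound. Grown 24 h at 30 degrees; viability read by BacTiter-Glo luminescence after 5 min.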
Marburg entry inh – blocks Marburg virus binding to or entry into cells | 1.8% of 300,000 active | Potency, µM (top dose mostly 37.8 µM), for inactives: at the highest dose activity change, negative = inhibition, usual class: inhibitors | Marburg virus pseudotyped entry inhibition, cell reporter; control for the full effect not named in the record; about a third of the inactives were read at about 46 µM; active = well fitted inhibition curve with a large enough effect; inconclusive = small, poorly fitted or top-dose-only effect, or effect the other way; inactive = flat fitted curve, though single readings scatter; tested in HEK293 cells; about a fifth of its hits are not listed in these tables; also: % is scaled to controls: 0 for no effect and ±100 for the full control effect; luciferase read-out
LASV entry inh – blocks Lassa virus binding to or entry into cells. Lassa virus pseudotype entry inhibition, cell reporter; control for the full effect not named in the record. Potency, µM (top dose mostly 37.9 µM), inactives show at the highest dose activity change, negative = inhibition, most hits filed as inhibitors. 1.2% of 300,000 active. AID 540256; active means well fitted inhibition curve with a large enough effect; inconclusive means small, poorly fitted or top-dose-only effect, or effect the other way; inactive means flat fitted curve, though single readings scatter; tested in HEK293 cells; also: % is scaled to controls: 0 for no effect and ±100 for the full control effect; nearly all actives have a fitted effect of over 50% in size; luciferase read-out
2A StopGo – lowers the luciferase signal of an FMDV 2A StopGo reporter; Potency, µM (highest dose often 57.9 µM), for the others: at the top dose signal change, negative = less light; AID 1159524; human cells with a luciferase reporter of 2A StopGo recoding; control for the full effect not named in the record; 1.2% of 410,000 active; active = well fitted falling curve with a large enough effect; inconclusive = small, poorly fitted or top-dose-only effect; inactive = no such curve, though single readings can be large or run the other way; tested in HEK293T cells; also: % is scaled to controls: 0 for no effect and ±100 for the full control effect; nearly all actives have a fitted effect of over 45% in size; luciferase light after 4 h
Cruzain inh noDet – blocks cruzain activity in detergent-free assay | P25779 | purified cruzain, Z-FR-AMC fluorescence, no detergent | Potency, µM, inactives show max response, negative = inhibition, most hits filed as inhibitors | 2.3% of 200,000 active | AID 1476; active = well fitted curve in the direction sought with a large enough effect; inconclusive = small, poorly fitted or top-dose-only effect, or another doubt; inactive = no such curve, though single readings can be large; an effect the other way counts as inactive or inconclusive;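 also: plate controls were enzyme without inhibitor for no effect and buffer without enzyme for full effect; nearly all actives have a fitted effect of over 40% in size; top concentration of the series not given in the record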
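Detergent-free condition (0.00005% Triton X-100) in acetate buffer pH 5.5 with DTT. 1.5 nM enzyme and compound were pre-mixed 15 min, then 2 uM Z-FR-AMC substrate added; reaction progress from fluorescence change between first and third reads (60 s).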
Starred values were filed as active, the others as inactive; ? = inconclusive; / = not tested or not shown; & = joins results of further samples; [ ] = dose if it differs, or a comment. Unless noted, calls follow the shape of the dose curve; as a rule, active means well fitted rising curve with a large enough effect; inconclusive means small, poorly fitted or top-dose-only effect; inactive means no such curve, though single readings can be large or run the other way. Potency is read from the fitted curve at half-maximal effect.

Below each compound: 2A StopGo | SARS PLP yeast | Marburg entry inh | Cruzain inh noDet | RE007 growth inh | LASV entry inh | NS1 function inh | Cruzain inh Det
COc1ccc(-c2csc(NC(=S)NC(=O)/C=C/c3ccco3)n2)cc1Br
→ -9% | 0% | -14%[46.1 µM] | / | 17% | ? | 12% | /
Cc1ccccc1NC(=O)CSc1nccn1C
→ 0% | / | 11%[46.1 µM] | 10% | / | 22%[46.1 µM] | / | 0.2%
C=CCn1c(=N)n(CC(=O)c2ccccc2)c2ccccc21
→ -8% | 1% | ? | / | -6% | ? | 1% | /
COc1ccc2[nH]c(=O)c(CN(C(=O)c3cccnc3)c3ccc(C)c(C)c3)cc2c1
→ -32% | 1% | ? | / | 16% | ? | -8% | /
O=C(c1ccc(F)cc1Cl)N1CCN(CCc2ccccc2)CC1
→ -8% | 2% | 21%[46.1 µM] | / | -17% | -1%[46.1 µM] | -2% | /
O=C(Nc1ccc(-c2cn3cccnc3n2)cc1)c1ccccc1F
→ 21% | / | / | -3% | / | 8%[46.1 µM] | / | -7.1%
O=C1c2ccccc2C(=O)N1CCCn1c(=O)oc2ccccc21
→ / | 4% | 3% | -14% | 0% | 8% | ? | 1.4%
Cc1ccc(NC(=O)CCC(=O)NNS(=O)(=O)c2ccc(Cl)cc2)cc1C
→ 1% | 1% | 8% | / | -19% | -3% | 13% | /
Cn1c(=O)[nH]c(=O)c2c1nc(SCCC(=O)O)n2Cc1cccc(Br)c1
→ -11% | 11% | 4%[46.1 µM] | / | 9% | -2%[46.1 µM] | 22% | /
Cc1noc(C)c1C(=O)NCc1cccs1
→ -2% | 1% | ? | 5% | 12% | -2% | 8% | 6.3%
Cn1c(SCc2cc(=O)[nH]c3ccccc23)nnc1-c1ccc(Br)cc1
→ -7% | -4% | 0% | 0% | -14% | -11% | 14% | 3.1%
O=C(NCC1CCCO1)c1ccc(-c2cccc(C(F)(F)F)c2)o1 (stereo unspecified)
→ 10% | 0% | / | / | 0% | / | -2% | /
Cc1ccc2nc(COC(=O)c3ccc(Cl)nc3)cc(=O)n2c1
→ 3% | -1% | -11% | / | -3% | 15% | / | /
CC1(C)C(=O)C=C[C@]2(C)[C@H]3CC[C@@]4(C)[C@H](c5ccoc5)OC(=O)[C@H]5O[C@]54[C@]3(C)[C@H](O)C[C@@H]12
→ 0% | -34% | ? | 12% | 53% | ? | -34% | -2.7%
O=C(CN1C(=O)NC2(CCCC2)C1=O)Nc1ccc(F)c(F)c1F
→ 7% | 2% | 12% | -6% | 1%[3.69 µM] | ? | 2% | 3.9%
COc1ccc(-c2csc(Cc3nnc4n3CCCCC4)n2)cc1
→ -8% | 2% | -11% | 0% | -7% | -16% | -5% | 1.3%
COC(=O)C(=C/C(C)=C/c1cccnc1)C(=O)OC
→ 22µM* | -2% | ? | / | -4% | -18%[46.1 µM] | -34% | /
Cc1cc(C)c(S(=O)(=O)N2CCCC(C(=O)N3CCOCC3)C2)c(C)c1 (stereo unspecified)
→ -5% | 5% | ? | / | -10% | -19%[46.1 µM] | -3% | /
Cn1c(=O)oc2cc(S(=O)(=O)N3CCC4(CC3)OCCO4)ccc21
→ 13% | -1% | -4% | -6% | 14% | 12% | 4% | -0.1%
Cc1ccc(S(=O)(=O)N(C)C)cc1NC(=O)Nc1ccccc1
→ -16% | 1% | -4%[46.1 µM] | / | 3% | 3%[46.1 µM] | 0% | /
Cc1ccc(S(=O)(=O)N2CCCC(C(=O)NCc3ccccc3F)C2)cc1 (stereo unspecified)
→ -4% | 0% | -5% | / | -6% | -21% | 5% | /
COC(=O)c1c(C)[nH]c(C(=O)OCC(=O)N(CC(C)C)c2c(N)n(Cc3ccccc3)c(=O)[nH]c2=O)c1C
→ -12% | 1% | 10% | / | 11% | -35%[46.1 µM] | / | /
CSCCC(NC(=O)c1ccco1)C(=O)Nc1cc(C)ccn1 (stereo unspecified)
→ 12% | -2% | ? | / | -9% | 27% | / | /
CC(=O)N1c2ccc(C)cc2C(c2ccccc2)CC1C (stereo unspecified)
→ -7% | -5% | 6.3µM* | / | 12% | ? | -25% | /
O=C(Nc1ccc(Cl)cn1)c1ccc([N+](=O)[O-])o1
→ 4% | -4% | ? | / | ? | ? | -59% | /
COc1ccc(NC(=O)c2cccs2)c([N+](=O)[O-])c1
→ 82%[activator] | ? | ? | -3% | -10% | 23% | -13% | 3.0%
CCOC(=O)CSc1nnc(Cn2nnc3ccccc32)n1-c1ccc(F)cc1
→ -2% | 1% | 21%&21%[46.1 µM] | / | 3% | 1% | 5% | /
Cc1cc(C)n(/N=C/c2ccco2)c(=O)c1C#N
→ -1% | -9% | -1%[46.1 µM] | 0% | 0% | 6% | 3% | -7.2%
CC(C)c1ccc(NC(=O)C2CCN(S(C)(=O)=O)CC2)cc1
→ 10% | 2% | 16% | 7% | 10% | -3% | -1% | 0.8%
CC12CN(C(=S)Nc3ccccc3)CC(C)(CN(C(=S)Nc3ccccc3)C1)C2=O
→ 20% | -1% | 1%[46.1 µM] | / | 58% | 0% | -2% | /
N#CC1(Nc2ccc(-c3ccc(NC4(C#N)CCCC4)cc3)cc2)CCCC1
→ 8% | / | 7% | 0% | -1% | 13%[46.1 µM] | -6% | 1.5%
COc1ccc(C(=O)N2CCN(C(C)=O)CC2)cc1S(=O)(=O)NCc1ccc(Cl)cc1
→ 50%[activator] | 3% | ? | -2% | -1% | 5% | -1% | 1.7%
CCOC(=O)N1CCC(NC(=O)C2CCN(S(=O)(=O)N3CCCC3)CC2)CC1
→ 6% | 4% | 0% | -9% | 10% | ? | 1% | 6.3%
Cc1ccc(OCC(=O)NCCO)c(Br)c1
→ 49%[activator] | 3% | -7%[46.1 µM] | / | 1% | 2% | -1% | /
Cc1cc(OCCCCCNCCO)cc(C)c1Cl
→ -28% | -7% | ? | -1% | -24% | 7% | -14% | 0.8%
Cc1cc(Cl)ccc1NC(=O)c1ccc2c(c1)OCO2
→ 0% | -2% | ? | / | 18% | ? | -8% | /
COc1cc(OC)c(C(=O)COc2ncnc3ccccc23)c(OC)c1
→ -20% | -2% | -18% | -12% | 3% | -14% | -9% | -1.2%
COc1ccc(S(=O)(=O)NCCSCc2cccc(C)c2)cc1Br
→ 33%[activator] | -26% | -18%[46.1 µM] | 11% | -22% | -2% | -56% | 3.6%
O=C(Nc1ccc(Cl)cc1)OCc1cc(-c2ccccc2Cl)on1
→ -23% | -1% | -5% | 2% | -25% | -13% | -11% | 0.5%
Cc1ccc(C(=O)Cn2nc(C)c([N+](=O)[O-])c2C)c(C)c1
→ 23% | 1% | 10% | / | 6% | -12% | / | /
Cc1c(C(=O)N(C)CC(=O)Nc2cccc(F)c2)oc2c(Cl)cccc12
→ -1% | -1% | -9% | / | 6% | -12% | / | /
O=C(NCCc1cn2ccccc2n1)C1CCCCC1
→ -10% | -2% | / | 16µM* | 9% | / | -25% | -4.3%
CCc1ccc2oc(=O)cc(CN(C)Cc3ccccc3)c2c1
→ ? | -5% | ? | -21% | -18% | -8% | -63% | -10.0%
CCOC(=O)N1CCC(NC(=O)c2ccc(CS(=O)(=O)c3c(Cl)cccc3Cl)o2)CC1
→ -24% | 2% | / | 11% | 2% | / | -8% | 0.6%
CC(=O)c1ccc(N2CCN(S(=O)(=O)c3c(C(=O)N4CCCC4)c(C)n(C)c3C)CC2)cc1
→ 8% | 3% | / | / | 6% | / | -12% | /
COc1ccc(CCNc2ccc(S(=O)(=O)N3CCN(C)CC3)cc2[N+](=O)[O-])cc1
→ -18% | -2% | ? | / | -6% | -24% | / | /
Cc1cc(=O)oc2c(C)c(OC(=O)c3ccco3)ccc12
→ -28% | / | 25% | / | -14% | -5% | / | /
Cc1cccc(N2CCN(Cc3nc(C4CC4)no3)CC2)n1
→ -16% | 0% | / | / | -6% | / | 0% | /
Cc1cc(C)nc(SCCn2c(N3CCCCC3)nc3c2c(=O)n(C)c(=O)n3C)n1
→ -14% | 1% | 6% | 2% | 0% | ? | -5% | 2.2%
Cc1ccc([N+](=O)[O-])cc1NC(=S)NC(=O)C(C)(C)C
→ / | -9% | 20% | 6% | -9% | -1% | -3% | -0.6%

The list goes on.
Below each compound: 2A StopGo | SARS PLP yeast | Marburg entry inh | Cruzain inh noDet | RE007 growth inh | LASV entry inh | NS1 function inh | Cruzain inh Det
COc1ccccc1/C=C1\N=C(C(C)(C)C)OC1=O
→ -21% | -1% | / | / | -15% | / | 1% | /
Cc1ccc(-c2c[n+](CC(=O)Nc3ccccc3C)c3n2CCC3)cc1
→ -3% | 0% | 16% | / | 5% | -4% | -5% | /
CCOC(=O)C1CCN(C(=O)CCc2c(C)nc3c(-c4ccc(F)cc4)c(C)nn3c2C)CC1
→ -15% | -4% | / | ? | 3% | / | 6% | -4.4%
Cc1cccc(CSCCNC(=O)c2ccc(N(C)S(=O)(=O)c3ccccc3)cc2)c1
→ 0% | -14% | ? | 6% | -14% | -2% | 3% | -2.0%
CCN(CC)C(=O)CSc1nc(O)cc(=O)n1C
→ 16% | 15% | 10% | -10% | -1% | 20%[14.3 µM] | ? | -0.1%
Nc1cc(-c2nc3ncccc3o2)ccc1Cl
→ 7% | -3% | -4% | -13% | ? | 25% | 2% | -6.3%
CCOc1ccc(NS(=O)(=O)c2cc(C)c(C)cc2C)cc1
→ 82%[activator] | -1% | -28% | / | -5% | -16% | 6% | /
CN(C)C1(CNC(=O)c2cccc(S(=O)(=O)Nc3ccc(Br)cc3)c2)CCCCC1
→ 6% | -1% | ? | / | -19% | 3% | / | /
O=[N+]([O-])c1ccc(Cl)c(CN2CCN(c3ncccn3)CC2)c1
→ -24% | 5% | -5% | / | 15% | ? | -7% | /
Cc1nc2ccccc2n1S(=O)(=O)c1cc(C(=O)O)ccc1Cl
→ -19% | -4% | / | / | -9% | / | 1% | /
CS(=O)(=O)N1CCCC(C(=O)Nc2ccccc2Cl)C1 (stereo unspecified)
→ 19% | 1% | ? | / | -21% | 19%[46.1 µM] | 9% | /
CCOc1ccccc1N(CC(=O)Nc1ccccc1C(=O)N1CCCC1)S(C)(=O)=O
→ 25% | 6% | 2%[46.1 µM] | / | -1% | -15%[46.1 µM] | -1% | /
